miR-21 reporter = qHTS Assay for Modulators of miRNAs and/orActivators of miR-21 | HeLa miR-21 FLuc reporter, luciferase, 48 h | Potency, µM (titrated, usually from 38.3 µM), without a hit: top-dose reporter change, positive = more light | 340,000 tested, under 10 active; active = well fitted rising curve with a large enough effect; inconclusive = small, poorly fitted or top-dose-only effect; inactive = no such curve, though single readings can be large or run the other way;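 further: % of control where 0% means no effect; miR-21 action dims this reporter so a rising signal means less miR-21 action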
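Luminescence from a firefly luciferase reporter carrying a miR-21 binding site downstream, stably expressed under a CMV promoter in HeLa cells that make miR-21 endogenously, reports miRNA modulation after 48 h compound exposure up to approximately 40uM final.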
Rango complex inh = qHTS Assay for Inhibitors of Rango (Ran-regulated importin-beta cargo) - Importin beta complex formation. AID 540263, 2011. Rango CFP/YFP FRET sensor + importin beta, 45 min. 340,000 compounds, 0.031% hits. Importin subunit beta-1 (Homo sapiens), Q14974. Potency, µM (highest dose often 92.2 µM), without a hit: at the highest dose inhibition of complex formation; active = rising FRET ratio curve, often small or poorly fitted; inconclusive = mostly compound fluorescence or quenching in the first reads; inactive = flat curves in all reads;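 further: potency means the concentration at half of the fitted maximal effect; 0% = DMSO wells and 100% = buffer wells lacking importin beta; nearly all actives have a fitted effect of over 15% in size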
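Inhibition scored from the CFP 486 nm/YFP 530 nm FRET ratio 45 min after adding 0.125 microM importin beta to 50 nM Rango biosensor preincubated 5 min with compound (room temperature, PBS with DTT, Tween-20, BSA). No-importin wells as positive control.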
Rango dissoc inh = qHTS Assay for Inhibitors of RanGTP induced Rango (Ran-regulated importin-beta cargo) - Importin beta complex dissociation; Potency, µM (series often up to 46.1 µM), without a hit: at the top dose activity change, negative = inhibition; Snurportin-1 (Homo sapiens) + GTP-binding nuclear protein Ran (Homo sapiens) + Importin …; AID 540253, 2011; Biochemical FRET Rango-importin beta, RanGTP-induced dissociation; 340,000 compounds, 0.071% hits; active means falling FRET ratio curve, often poorly fitted, with flat reads before Ran was added; inconclusive means other falling curves, or compound fluorescence or quenching; inactive means flat or rising ratio curve;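 further: potency means the concentration at half of the fitted maximal effect; % of control where 0% means no effect; nearly all actives have a fitted effect of over 45% in size; -100% = wells without RanGTP and RCC1; the record marks most hits as doubtful in a second field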
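Recombinant Rango FRET biosensor (EYFP–snurportin 1 IBB–cerulean CFP10) at 0.1 uM premixed with 0.25 uM importin beta in PBS, 1 mM DTT, 0.02% Tween-20, 0.1% BSA. Compound added 5 min; RanGTP-RCC1 (0.6 uM Ran, 2 mM GTP, 0.2 uM RCC1) then triggers release, read at 45 min.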
GLA inh pH 4.5 = qHTS Assay for Inhibitors of Human alpha-Galactosidase at pH 4.5 | Alpha-galactosidase A (Homo sapiens), P06280 | purified enzyme, 4-MU-alpha-Gal fluorescence, pH 4.5 | activity change, negative = inhibition, % at 105 µM | 230,000 tested, under 10 active; inconclusive = small, poorly fitted or top-dose-only inhibition, or a rising curve; inactive = flat fitted curve, though single readings scatter; no compound was filed as active;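 further: 0% = full activity with enzyme and -100% = basal without enzyme; dose as in the result columns while the protocol names 77 µM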
Target sequence (P06280 whole entry, looked up): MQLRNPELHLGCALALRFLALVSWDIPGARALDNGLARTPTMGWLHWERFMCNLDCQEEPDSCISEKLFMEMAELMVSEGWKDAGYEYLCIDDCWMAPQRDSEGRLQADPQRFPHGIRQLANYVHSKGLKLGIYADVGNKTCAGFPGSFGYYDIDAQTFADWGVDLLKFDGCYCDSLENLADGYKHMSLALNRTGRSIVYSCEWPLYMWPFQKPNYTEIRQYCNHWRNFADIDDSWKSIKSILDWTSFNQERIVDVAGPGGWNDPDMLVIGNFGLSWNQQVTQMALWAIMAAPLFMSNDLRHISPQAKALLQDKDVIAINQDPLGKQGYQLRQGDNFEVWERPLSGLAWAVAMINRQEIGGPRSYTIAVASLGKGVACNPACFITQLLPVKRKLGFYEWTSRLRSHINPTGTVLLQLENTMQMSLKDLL
* hit, by the source's call; ? = inconclusive; nt = no result given; & = joins results of further samples. Not all compounds are listed. The share of hits here may be higher or lower than overall.

1: Cc1cccc(NC(=O)C(CC(C)C)NC(=O)C2CCC(C)CC2)n1 (centres undefined)
2: CC(C)C[C@H](NC(=O)N1c2ccccc2NC(=O)[C@@H]1C(C)C)C(=O)N1CCC[C@@H]1C(=O)O
3: CN(C)CCn1cnc2c1c(=O)[nH]c(=O)n2Cc1ccccc1
4: COC(=O)c1cc(NC(=O)c2ccccc2)c(=O)oc1C/C=N\OCc1ccc(Cl)cc1Cl
5: Cc1ccc(NC(=O)c2sc(=S)n(-c3cc(C)ccc3F)c2N)cc1
6: O=C(Cn1nc(-c2nn(CC(=O)c3ccccc3)c3[n+]2CCCCC3)[n+]2c1CCCCC2)c1ccccc1
7: COc1ccccc1NC(=O)CN1C(=O)C2(OCCCO2)c2ccccc21
8: O=C(NCCCN1CCOCC1)C(=O)NCc1ccco1
entry no. | 1 | 2 | 3 | 4 | 5 | 6 | 7 | 8
miR-21 reporter | 1% | 0% | 0% | 3% | -11% | 0% | -3% | -1%
Rango complex inh | -2.2% | 2.4% | -1.8% | ? | -3.4% | -6.6% | -0.5% | -4.7%
Rango dissoc inh | -11% | 0% | 13% | ? | -8% | 2% | 2% | 14%
GLA inh pH 4.5 | 1 | nt | nt | -2 | -7 | -12 | -9 | 6

9: Cc1cc([N+](=O)[O-])nn1CC(=O)NCc1nc2ccccc2[nH]1
10: Cc1cccc(-c2cnn(-c3ccccc3)c2N)c1
11: CC1Cc2ccccc2N1C(=O)CCNS(=O)(=O)c1cccc2nsnc12 (centres undefined)
12: C[N+](C)(C)CC(=O)N1CCN(c2ccc3ccccc3n2)CC1
13: COc1ccc(NCC(O)COc2ccc(C(C)(C)C)cc2)cc1 (centres undefined)
14: COc1ccc(CN2[C@@H](CC(=O)O)c3cc(F)ccc3S2(=O)=O)cc1
15: COC(=O)[C@H](Cc1c[nH]c2ccccc12)NC(=O)Cc1c[nH]c2ccccc12
16: O=C(Cc1c(F)cccc1Cl)NCCCn1ccnc1
entry no. | 9 | 10 | 11 | 12 | 13 | 14 | 15 | 16
miR-21 reporter | 0% | -58% | -3% | -1% | -13% | nt | 0% | 1%
Rango complex inh | -3.7% | 0.3% | -0.9% | 0.1% | 0.4% | 4.5% | -1.5% | 1.5%
Rango dissoc inh | -12% | 19% | -7% | 8% | -12% | 4% | 4% | 0%
GLA inh pH 4.5 | -4 | nt | 1 | nt | -4 | nt | nt | 13

17: COCCNC(=O)c1c[nH]c2ccc(S(=O)(=O)N3CCOCC3)cc2c1=O
18: CCOc1ccc(N=C2NC(=O)S/C2=C\c2ccc(O)cc2)cc1
19: O=C1CC(N2CCN(C3CCc4ccccc4C3)CC2)C(=O)N1c1ccccc1 (centres undefined)
20: CC1CN(C)C(C)CC1OC(=O)C(c1ccccc1)c1ccccc1 (centres undefined)
21: Cn1c(=O)[nH]c2c(cnn2C)c1=O
22: CCCCCC1CCC(C(=O)NNC(=S)NCC)CC1 (centres undefined)
23: CCN1CCN(C(=S)c2ccc(Br)cc2)CC1
24: Cn1cc([N+](=O)[O-])c(C(=O)NC2CCCC2)n1
entry no. | 17 | 18 | 19 | 20 | 21 | 22 | 23 | 24
miR-21 reporter | 0% | -7% | nt | nt | nt | 13% | -2% | -2%
Rango complex inh | -0.5% | ? | 0.8% | -2.0% | -1.8% | 3.3% | -1.1% | 2.6%
Rango dissoc inh | 19% | -2% | 7% | 20% | -13% | -28% | 0% | 10%
GLA inh pH 4.5 | nt | -7 | nt | nt | nt | 4 | 8 | nt

25: CC(=O)Nc1cccc(-n2nnc(SCC(=O)Nc3ccccc3)n2)c1
26: C=CCNC(=O)/C(=C\c1ccc2c(c1)OCO2)NC(=O)c1ccc(Br)cc1
27: O=C(NCCN1CCC(Cc2ccccc2)CC1)C1CCCN(S(=O)(=O)c2cnc[nH]2)C1 (centres undefined)
28: CC(C)CCOc1ncnc2c1sc1nc3c(cc12)CSC(C)(C)C3
29: CC1CCN(C(=O)Nc2ccc3nsnc3c2)CC1
30: COc1ccccc1NC(=O)N(Cc1ccco1)Cc1cc2c(C)ccc(C)c2[nH]c1=O
31: COCCN(CC(=O)NCc1ccc(F)cc1)C(=O)CCC(=O)Nc1nccs1
32: CCOC(=O)c1cc2c(ccc3nc(C)c(C)c32)[nH]c1C
entry no. | 25 | 26 | 27 | 28 | 29 | 30 | 31 | 32
miR-21 reporter | -13% | -7% | -3% | -24% | -42% | 16% | -2% | -26%
Rango complex inh | 1.0% | -3.6% | 0.8% | 7.1% | ? | -4.3% | 0.1% | ?
Rango dissoc inh | -8% | -14% | 11% | 9% | -8% | 17% | -6% | ?
GLA inh pH 4.5 | ? | 5 | -3 | -2 | 13 | -1 | -5 | nt

33: Cc1ccc(C(=O)Nc2ccc(S(=O)(=O)N3CCN(C)CC3)cc2)cc1
34: Cc1ccc(C)c(NC(=O)CSc2nc3ccccc3nc2N2CCOCC2)c1
35: Cc1cc(C(C)(C)C)cc(C)c1COC(=O)C1CCC(=O)N1 (centres undefined)
36: Cc1cc([N+](=O)[O-])c(C)cc1-c1ccc(/C=N/n2cnnc2)o1
37: CCc1nc2ccccc2c(C(=O)Nc2ccc(C)cc2)c1C
38: CC1=CCC(C(=O)O)C(C(=O)Nc2nc3ccc(S(C)(=O)=O)cc3s2)C1 (centres undefined)
39: CN(C(=O)COc1ccc(Cl)cc1Cl)c1nnc(C23CC4CC(CC(C4)C2)C3)s1
40: O=C(O)C1CCN(C(=O)c2ccccc2N2C(=O)[C@@H]3Cc4c([nH]c5ccccc45)C(c4cccc(Cl)c4)N3C2=O)CC1 (some centres undefined)
entry no. | 33 | 34 | 35 | 36 | 37 | 38 | 39 | 40
miR-21 reporter | -12% | 0%&-1% | -9% | 1% | 3% | -6% | -2% | 1%
Rango complex inh | -6.0% | 1.7% | 5.0% | 3.2% | 0.3% | 0.6% | -0.2% | ?
Rango dissoc inh | -3% | 29% | -2% | 4% | 2% | 12% | -17% | -18%
GLA inh pH 4.5 | -3 | nt | 5 | nt | nt | 6 | -4 | nt

41: O=C1C(Oc2ccc(Cl)cc2)C(c2ccc3c(c2)OCO3)N1CC1CCCO1 (centres undefined)
42: Nc1nc(-c2ccco2)nc(N2CCCCC2)n1
43: COc1cccc(OC)c1C(=O)N1CCNCC1
44: Cn1ccnc1SCC(=O)Nc1nc2c(F)c(F)c(F)cc2s1
45: NS(=O)(=O)c1ccc(NC(=S)NC(=O)C2CCCCC2)cc1
46: Cc1cc(C)c(C)c(S(=O)(=O)N2CCC(C(=O)N3CCN(c4ccc(F)cc4)CC3)CC2)c1C
47: CCOP(=O)(OCC)c1nc(-c2ccc(OC)cc2)oc1N1CCOCC1
48: COC(=O)c1ccc(CN2CCCC(C(=O)Nc3cccc(-n4cnnn4)c3)C2)cc1 (centres undefined)
entry no. | 41 | 42 | 43 | 44 | 45 | 46 | 47 | 48
miR-21 reporter | 21% | 2% | -3% | -6% | -14% | nt | -8% | 17%
Rango complex inh | 1.0% | 1.0% | -0.5% | 6.2% | 1.6% | 3.8% | 4.3% | 0.2%
Rango dissoc inh | 0% | 17% | 11% | -8% | 0% | 1% | 19% | 1%
GLA inh pH 4.5 | 6 | -2 | nt | 4 | 5 | nt | 9 | nt

Structures shown so far with bromine:
23: CCN1CCN(C(=S)c2ccc(Br)cc2)CC1
26: C=CCNC(=O)/C(=C\c1ccc2c(c1)OCO2)NC(=O)c1ccc(Br)cc1
entry no. | 23 | 26
miR-21 reporter | -2% | -7%
Rango complex inh | -1.1% | -3.6%
Rango dissoc inh | 0% | -14%
GLA inh pH 4.5 | 8 | 5

Next structures follow.
49: C=CCOc1ccccc1CNCc1cccnc1
50: Cc1ccc(C)c(S(=O)(=O)NCCOC(=O)Nc2sc(=S)n(C)c2C)c1
51: Cc1cccc(C(=O)N2CCN(Cc3ccc4c(c3)OCO4)CC2)c1
52: CCC(=O)Nc1ccc2c(c1)C(=O)N(C)C2=O
53: CN(c1ccccc1)S(=O)(=O)c1cccc(C(=O)N2CCN(c3ccccn3)CC2)c1
54: Cc1nn2c(-c3ccncc3)ccnc2c1Br
55: O=C(COc1cccc2c1CCNC2=O)NC1CCCCC1
56: CC(=O)c1ccc(N2CCN(CCC#N)CC2)c(F)c1
entry no. | 49 | 50 | 51 | 52 | 53 | 54 | 55 | 56
miR-21 reporter | -4% | 6% | -1% | 2% | 15% | -21% | nt | -6%
Rango complex inh | ? | -2.2% | 3.0% | 14% | -1.4% | -0.5% | 1.4% | -0.3%
Rango dissoc inh | -17% | 6% | -9% | 23% | 1% | 5% | 0% | 11%
GLA inh pH 4.5 | -2 | 1 | -3 | -4 | 3 | -4 | nt | 3

Single records (already shown). Order of screens: miR-21 reporter, Rango complex inh, Rango dissoc inh, GLA inh pH 4.5
Record of CC(=O)c1ccc(N2CCN(CCC#N)CC2)c(F)c1 : -6%, -0.3%, 11%, 3
Record of Cc1cccc(C(=O)N2CCN(Cc3ccc4c(c3)OCO4)CC2)c1 : -1%, 3.0%, -9%, -3
Record of Cc1ccc(C)c(S(=O)(=O)NCCOC(=O)Nc2sc(=S)n(C)c2C)c1 : 6%, -2.2%, 6%, 1
Record of CCC(=O)Nc1ccc2c(c1)C(=O)N(C)C2=O : 2%, 14%, 23%, -4
Record of O=C(COc1cccc2c1CCNC2=O)NC1CCCCC1 : nt, 1.4%, 0%, nt

Next section
57: Cc1ccc(C(=O)OCC(=O)NN2C(=O)NC3(CCC(C)CC3)C2=O)cc1 (centres undefined)
58: CCOc1ccc(S(=O)(=O)Nc2cccc(C(=O)N3CCN(c4ccccc4O)CC3)c2)cc1
59: O=C(Cc1cccs1)NNC(=S)NC(=O)c1ccccc1
60: C=CC(=O)N=c1sc2ccccc2n1-c1ccccc1
61: CCCN1CCC(N2CCCC(C(=O)O)C2)CC1 (centres undefined)
62: Cc1cccc(NC(=O)C2CCCN2S(=O)(=O)c2ccc3c(c2)n(C)c(=O)c(=O)n3C)c1 (centres undefined)
63: CN(C)CCNC(=O)c1cc(Br)ccc1Cl
64: COc1ccc(CCNC(=O)CN2C(=O)NC3(CCCCC3)C2=O)cc1
entry no. | 57 | 58 | 59 | 60 | 61 | 62 | 63 | 64
miR-21 reporter | nt | nt | -17% | ? | 2% | -1%&-3% | -1% | nt
Rango complex inh | 6.0% | -5.6% | -0.6% | -4.3% | 1.8% | -5.8% | ? | 0.5%
Rango dissoc inh | 5% | 0% | 11% | -8% | 17% | -1% | -7% | -1%
GLA inh pH 4.5 | nt | nt | -1 | 4 | -1 | 3 | 3 | nt

65: CCOC(=O)C1CCCN(S(=O)(=O)c2cc(OCC(=O)NC3CCCCC3)c(C)cc2Cl)C1 (centres undefined)
66: COc1cccc(C(=O)Nc2nc(SCc3ccc(Cl)cc3)n[nH]2)c1
67: Cc1ccc(NC(=S)N2CCCC2)cc1C
68: O=C(O)c1ccccn1
69: O=C1CC(C(=O)NC2CCCCC2)C2(CCCCC2)O1 (centres undefined)
entry no. | 65 | 66 | 67 | 68 | 69
miR-21 reporter | -3% | -26% | -39% | nt | 0%
Rango complex inh | -3.0% | -0.8% | 0.5% | -0.7% | -0.6%
Rango dissoc inh | -7% | 0% | 0% | -2% | -9%
GLA inh pH 4.5 | -4 | -4 | nt | nt | 3

Bioassay records from PubChem.
